High-throughput results deposited in PubChem by National Center for Advancing Translational Sciences (NCATS).
Menin-MLL FL inh: inhibitors of human menin-MLL interaction, wild-type MLL peptide; 290,000 tested, under 10 active; AID 1766; FP activity change, % at 61.4 µM; Fluorescence polarization, fluorescein-MLL peptide displacement from menin; inconclusive = falling polarisation curve, or a change in total fluorescence; inactive = total fluorescence flat and polarisation flat or rising; no compound was filed as active; the % refers to the polarisation; negative = inhibition;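 also: % of control where 0% means no effect; inhibitors lower the polarisation; unlabelled MLL peptide was the positive control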
gsp antagonist: antagonizes gsp, the McCune-Albright syndrome mutation. gsp-mutant cells, cAMP HTRF, 30 min; control for the full effect not named in the record. Potency, µM (titrated, usually from 76.9 µM), inactives show at the top dose activity change, negative = inhibition, actives largely listed as inhibitors. actives 0.4% (n = 340,000). AID 624288; active = falling curve of any shape with a large fitted effect; inconclusive = falling curve, mostly with a smaller effect; inactive = flat or rising curve; cell line not stated here;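 also: intracellular cAMP measured with PDE inhibitor Ro 20-1724 present during compound exposure; potency is read from the fitted curve at half-maximal effect; % is scaled to controls: 0 for no effect and ±100 for the full control effect; nearly all actives have a fitted effect of over 65% in size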
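HTRF cAMP read-out (cAMP-d2 plus anti-cAMP antibody-K in lysis buffer, 30 min RT). Before lysis, cells are exposed to compounds with […] for 30 min at 37C in DPBS containing Ca/Mg, BSA and Tween 20.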
ClpP mod: qHTS Assay for Activators of ClpP; ATP-dependent Clp protease proteolytic subunit (Bacillus subtilis (strain 168)), P80244; purified B. subtilis ClpP, FRET peptide cleavage, 20 min; Potency, µM (top dose mostly 57.5 µM), for inactives: at the highest dose activity change, negative = active; actives 1.9% (n = 340,000); AID 651965, 2013; active = well fitted falling curve with a large enough effect; inconclusive = small, poorly fitted or top-dose-only effect; inactive = no such curve, though single readings can be large or run the other way; also: potency is read from the fitted curve at half-maximal effect; the source files actives as falling curves though it sought activators and does not explain the sign; nearly all actives have a fitted effect of over 65% in size; many hits overshoot -100%
Target sequence (P80244 whole entry, looked up): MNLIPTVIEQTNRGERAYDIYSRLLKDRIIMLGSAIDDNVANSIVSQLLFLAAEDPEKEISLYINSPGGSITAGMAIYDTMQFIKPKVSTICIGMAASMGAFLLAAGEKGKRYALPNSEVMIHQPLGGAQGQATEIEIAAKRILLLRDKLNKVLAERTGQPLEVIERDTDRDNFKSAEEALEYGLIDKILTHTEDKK
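ClpP 10 microg/mL final, pH 8 Tris/KCl buffer with BSA, glycerol, Tween-20; compound pinned in; FRET-FV substrate; RT 20 min; Ex320/Em430; ΔFRET vs ADEP 5.8 microM, DMSO, no enzyme.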
gsp agonist: gsp mutant agonism | gsp mutant cells, cAMP HTRF, 30 min; control for the full effect not named in the record | Potency, µM (titrated, usually from 76.9 µM), inactives show top-dose activation (cAMP increase), actives largely listed as activators | actives 0.13% (n = 340,000) | AID 624287; active = well fitted activation curve with a large enough effect; inconclusive = small, poorly fitted or top-dose-only effect, or another doubt; inactive = no such curve, though single readings can be large or run the other way; cell line not stated here;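 also: phosphodiesterase inhibitor Ro 20-1724 added with compounds to block cAMP breakdown; potency is read from the fitted curve at half-maximal effect; nearly all actives have a fitted effect of over 60% in size; about a fifth of the inactives were tested at one dose only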
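Cells stably selected in G418 were plated at 2000/well, grown 16-24 hr, then given compounds in DMSO with the PDE inhibitor […] (300 uM solution added) for 30 min at 37C; cAMP was read by HTRF.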
CtBP-E1A blk: blocks the CtBP interaction with E1A; AlphaScreen GST-E1A/His-CtBP binding, 1536-well; hits give low values; control for the full effect not named in the record; activity change, % (concentration not given with the values); actives 0.49% (n = 340,000); in the data active means activity change below about -65%; inconclusive means about -30% to -65%; inactive means above about -30%; also: % is scaled to controls: 0 for no effect and ±100 for the full control effect
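In 5 uL wells, 23 nL compound meets equimolar GST-E1A and His-CtBP (5X stock 125 nM each) for 2 h, 37 °C. Beads (5X, 50 ug/mL) then 1 h, 37 °C, dark.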
Sfp inh: Sfp phosphopantetheinyl transferase inhibition; Q9F4F7; Biochemical Sfp PPTase activity, qHTS; Potency, µM, for the others: max response, negative = inhibition, usual class: inhibitors; actives 3.5% (n = 310,000); AID 1490; active = well fitted inhibition curve with a large enough effect; inconclusive = small, poorly fitted or top-dose-only effect, or another doubt; inactive = no such curve, though single readings can be large or run the other way;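 also: the enzyme is Sfp with the accession as filed and its product quenches rhodamine fluorescence; potency is read from the fitted curve at half-maximal effect; 0% = enzyme reaction without inhibitor and -100% = no enzyme wells; top concentration of the series not given in the record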
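Compounds were incubated with enzyme (final 15 nM) for 15 min at room temperature before substrate addition started the reaction. Fluorescence at 525 nm excitation, 598 nm emission was recorded immediately and after 30 minutes.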
TRPV1 PAM: potentiators of human vanilloid receptor 1 (TRPV1); Q8NER1; TRPV1-expressing cells, Fluo-8 calcium influx, capsaicin EC20 potentiation; host cell line not named in the record; control for the full effect not named in the record; potentiation, % at 8.33 µM; actives 0.02% (n = 320,000); active means potentiation above 80%; inconclusive means 30% to 80%; inactive means below 30%; also: 0% is about no effect
Target sequence (Q8NER1 whole entry, looked up): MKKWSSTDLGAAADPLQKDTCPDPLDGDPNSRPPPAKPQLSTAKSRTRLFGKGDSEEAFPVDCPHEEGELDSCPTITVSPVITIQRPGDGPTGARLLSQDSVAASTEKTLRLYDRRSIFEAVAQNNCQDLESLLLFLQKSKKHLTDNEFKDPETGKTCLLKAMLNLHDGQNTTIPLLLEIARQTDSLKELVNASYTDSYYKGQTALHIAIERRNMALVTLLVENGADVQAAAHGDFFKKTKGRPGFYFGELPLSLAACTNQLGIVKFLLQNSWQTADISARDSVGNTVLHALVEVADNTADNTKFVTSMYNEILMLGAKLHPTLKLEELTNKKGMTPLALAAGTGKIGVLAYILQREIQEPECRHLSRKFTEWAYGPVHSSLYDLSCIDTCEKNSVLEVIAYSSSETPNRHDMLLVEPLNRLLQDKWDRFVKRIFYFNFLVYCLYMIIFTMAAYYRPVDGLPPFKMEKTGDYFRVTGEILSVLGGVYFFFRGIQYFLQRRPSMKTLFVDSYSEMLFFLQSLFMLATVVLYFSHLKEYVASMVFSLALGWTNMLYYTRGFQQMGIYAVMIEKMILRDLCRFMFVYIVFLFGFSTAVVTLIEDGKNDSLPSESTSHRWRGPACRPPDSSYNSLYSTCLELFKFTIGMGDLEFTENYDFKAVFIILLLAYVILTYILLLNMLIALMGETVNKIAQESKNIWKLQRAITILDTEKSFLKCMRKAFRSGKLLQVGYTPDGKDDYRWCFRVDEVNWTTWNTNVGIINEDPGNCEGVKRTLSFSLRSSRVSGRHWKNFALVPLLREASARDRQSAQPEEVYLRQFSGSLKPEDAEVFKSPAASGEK
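Fluo-8 calcium influx in TRPV1-expressing cells, kinetic read (ex 480/em 520 nm). Compound added and read 3 min for agonist activity, followed by capsaicin at EC20 final and 2 min further read for enhancement.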
* = called active by the depositor; ? = inconclusive; · = not tested or not shown; & = joins results of further samples; [ ] = another dose, or the depositor's remark.

SMILES	Menin-MLL FL inh	gsp antagonist	ClpP mod	gsp agonist	CtBP-E1A blk	Sfp inh	TRPV1 PAM
COc1ccc(CCN(C)C(=O)c2cncc(Br)c2)cc1OC	1.9	-2.0%	·	-15.7%[15.4 µM]	2.3	12.7%	0.9
COc1cccc(-n2c(SC)nnc2-c2c[nH]c3ccccc23)c1	2.9	-14.2%	-1.3%	6.3%	-4.4	-9.6%	·
Cc1occc1C(=O)NNC(=O)Nc1ccc(Cl)c(Cl)c1	5.8	9.4%	0.2%	-1.9%[15.4 µM]	-0.6	-28.0%	?
CCNC(=S)N1CCNC(=O)C1CC(=O)OC (stereo not drawn)	1.7	4.7%	·	-25.8%	2.8	79.4µM*	-5.3
CCOCCCNC(=O)C(c1ccc(OC)cc1)N(Cc1ccc2c(c1)OCO2)C(=O)c1ccccc1O (stereo not drawn)	1.6	-12.1%	-5.3%	-9.6%	-1.8	-18.4%	-4.1
Cc1cccc(NC(=O)c2nc[nH]c2C(=O)N[C@@H](Cc2ccccc2)C(=O)OC(C)(C)C)c1	-6.3	9.9%	?	6.3%	-5.8	19.7%	-8.2
COc1ccc(-c2nc(CSCC(=O)NCc3ccco3)c(C)o2)cc1	?	-7.2%	?	-9.0%	-6.8	-12.7%	-8.5
Nc1nonc1-n1nnc(C(=O)N/N=C\c2cccc(Cl)c2)c1CN1CCOCC1	-1.1	-12.5%	·	-54.8%[15.4 µM]	?	11.5%	15.7
CC1(C(=O)N/N=C/c2c(F)c(F)c(F)c(F)c2F)CC1(Cl)Cl (stereo not drawn)	·	-17.6%	·	-5.4%	-2.0	·	·
COc1cc2c(cc1OC)CN(CC(=O)Nc1cccc([N+](=O)[O-])c1)CC2	-6.1	-18.2%	-18.4%	-3.1%	·	13.8%	-9.2

Looked up above.
Menin-MLL FL inh with `Nc1nonc1-n1nnc(C(=O)N/N=C\c2cccc(Cl)c2)c1CN1CCOCC1` = -1.1
CtBP-E1A blk with `CCNC(=S)N1CCNC(=O)C1CC(=O)OC` (stereo not drawn) = 2.8

Next results
SMILES	Menin-MLL FL inh	gsp antagonist	ClpP mod	gsp agonist	CtBP-E1A blk	Sfp inh	TRPV1 PAM
Cc1ccc(NC(=O)COC(=O)c2cc(C)nc3ccccc23)c([N+](=O)[O-])c1	2.3	15.2%	·	5.4%[15.4 µM]	-7.2	25.1%	0.9
CN1C(=O)CC(N2CCN(C(=O)CN3CCCC3)CC2)C1=O (stereo not drawn)	3.4	7.3%	0.2%	-2.8%	4.1	23.5%	-6.1
CN(C)/C=C1\C(=O)Oc2ccccc2C1=O	·	-10.2%	-11.7%	-10.4%	·	·	·
O=C(Cc1ccc(NC2=NC3CS(=O)(=O)CC3S2)cc1)Nc1ccc(F)cc1 (stereo not drawn)	1.5	4.8%	1.7%	-13.2%	0.6	20.6%	-35.3
Cc1nc(P(=O)(c2ccccc2)c2ccccc2)c(N2CCOCC2)o1	0.8	5.4%	3.1%	-22.1%	-3.5	12.8%	-21.8
CC(=O)c1ccc(S(=O)(=O)Nc2ccc(Cl)c(S(=O)(=O)N3CCCC3)c2)cc1	·	?	1.1%	3.8%	1.7	·	·
C=CCn1c(CCn2c3ccccc3c3ccccc32)n[nH]c1=S	2.4	-2.5%	-3.6%	-46.4%[inhibitor]	-5.1	-13.6%	-2.6
CCCOc1ccc(N2CC(C(=O)Nc3ccc4c(c3)OCO4)CC2=O)cc1 (stereo not drawn)	-0.3	0.2%	1.0%	0.1%	0.9	10.7%	3.2
CC(NC(=O)/C(C#N)=C1\N=C(NC(=O)c2ccco2)c2ccccc21)c1ccccc1 (stereo not drawn)	5.4	-4.9%	·	29.0%	-11.6	1.4%	-8.6
Cc1nnc(NC(=O)CSc2ccc3nnc(-c4cccnc4)n3n2)s1	-4.0	·	·	·	·	-12.5%	7.7
CS(=O)(=O)Cc1cc(Sc2ccccc2)nc(-c2ccncc2)n1	5.4	-10.1%	·	15.7%	2.5	18.3%	-9.4
Cc1ccc2nc3sc(-c4nnc(-c5ccccc5[N+](=O)[O-])o4)c(N)c3cc2c1	1.3	·	·	·	·	-2.2%	8.4
CCCN1CCN(C(=O)Nc2ccc(C(=O)OCC)cc2)CC1	6.0	-11.2%	0.5%	1.4%	3.5	?	-8.1
COc1ccccc1OCCNC(=O)c1cccc(S(=O)(=O)NCc2ccccc2)c1	·	-17.2%	1.6%	-41.2%[inhibitor]	-0.2	·	?
C=CCNC(=O)c1ccccc1NC(=O)c1ccccc1	-0.6	10.5%	0.8%	?	1.4	-4.9%	-13.4
O=C(O)c1ccc2c(c1)C(=O)N(Cc1ccccc1)C2=O	-2.7	-8.0%	-0.4%	-28.5%	7.3	2.9%	8.5
Cc1ccc(S(=O)(=O)c2n[nH]n3c2nc(=O)c2ccccc23)cc1	3.1	-4.7%	15.8µM*	18.5%	-13.6	10.4%	0.6
O=[N+]([O-])c1cc(S(=O)(=O)NCCN2CCOCC2)ccc1Sc1nnnn1-c1ccccc1	-5.2	15.9%	-0.6%	?	22.6	1.6%	-16.2
CCOC(=O)C1=CN(Cc2ccccc2)CCC1=O	·	0.7%	-3.3%	·	-5.6	·	·
CSc1n[nH]c(NC(C)=O)n1	-0.3	-4.0%	-2.2%	-21.6%	-2.6	-11.1%	-9.5
CC1(C)C(=O)Nc2ccccc2N1C(=O)Cn1ncc(Cl)c(Cl)c1=O	2.4	-16.8%	-1.6%	-1.1%	·	13.4%	·
CC1CCc2cc(F)cc3c(=O)c(C(=O)O)cn1c23 (stereo not drawn)	3.4&-0.6	-5.1%	-8.8%	·	3.7	-8.1%&-27.0%	-21.9
C(=N\N(c1ccccc1)c1ccccc1)/c1ccc(N2CCOCC2)s1	11.7	4.3%	-0.8%	?	-9.7	-19.6%	-12.2
Cc1ccc(S(=O)(=O)N(C)c2cc(S(N)(=O)=O)c(C)cc2C)cc1	-1.1	-1.7%	·	-2.1%	6.1	4.1%	7.9
O=C1NC(Cc2ccc(O)cc2)c2nc3cc(F)ccc3c(=O)n2-c2ncccc21 (stereo not drawn)	·	·	-2.8%	18.0%	5.0	·	·
COc1ccc(C(=O)NCc2cc(C(C)C)no2)cc1OC1CCN(C(C)C)CC1	·	10.1%	-0.7%	33.5%	3.7	9.8%	5.8
CC(C)Cn1cnc2c(=O)oc3ccccc3c21	4.7	1.0%	0.6%	42.9%	-9.7	14.9%	15.0
CC(C)N=C1SCC(C)(/C=N/O)S1 (stereo not drawn)	0.1	8.5%	0.2%	-2.4%	8.3	3.7%	7.2
O=C(CSc1nnc(-c2ccc(S(=O)(=O)N3CCCC3)cc2)o1)NCc1ccccc1	4.2	-2.0%	-1.6%	-22.6%	-9.4	1.9%	-0.3
Cc1sc2nc(CN3CCOCC3)nc(N3CCOCC3)c2c1C	3.7	-0.5%	-0.9%	-8.9%	1.8	?	2.9
Cc1ccc(OCCSc2ncccn2)c(C)c1	-1.9	4.1%	-2.4%	25.4%	3.6	-12.4%	8.0
CCCc1nnc(SCC(=O)Nc2ccc(Cl)cc2Cl)o1	2.9	4.4%	·	17.8%	3.1	-2.1%	8.3
CCN(CC)CCNC(=O)c1ccc(NC(=O)c2cccc(S(=O)(=O)Nc3ccc(C)cc3)c2)cc1	3.7	12.2%	1.2%	-47.2%[inhibitor]	·	39.8µM*	-2.2
Cc1nc(Nc2c(Cl)cccc2Cl)sc1C(=O)Nc1ccccc1	4.8	-13.5%	·	-0.4%[15.4 µM]	2.7	14.0%	27.5
CC(NC(=O)Cn1nc(C(=O)O)c2ccccc2c1=O)C12CC3CC(CC(C3)C1)C2 (stereo not drawn)	1.3	?	·	-3.4%	-1.2	10.6%	-28.1
CC(Cc1ccccc1)N1C(=O)c2cccc([N+](=O)[O-])c2C1=O (stereo not drawn)	1.0	13.8%	·	8.1%	-21.9	-6.0%	-9.9
COc1cc(-n2nnnc2SC)c(OC)cc1Cl	-3.7	4.0%	-0.3%	-12.7%	3.8	23.8%	3.9
O=C(CNC(=O)c1ccc(-c2ccccc2)cc1)OCc1ccc(Br)cc1	7.1	12.1%	·	7.2%[15.4 µM]	5.1	16.1%	?
CCOC(=O)CSc1nc2cc(OCC)ccc2cc1C#N	?	-19.1%	15.8µM*	0.0%	-0.9	7.4%	7.5
CN1CCN(C(=O)Nc2cccc(-c3ccccc3)c2)CC1	-1.0	6.2%	·	-18.3%[15.4 µM]	-4.4	-6.8%	4.9
O=C(C1=C(O)C(=O)N(c2ccccc2)C1c1ccc([N+](=O)[O-])cc1)c1cccs1 (stereo not drawn)	-2.7	-7.5%	1.5%	9.0%[15.4 µM]	2.5	22.7%	13.2
COc1cccc(OCC(=O)N(C)Cc2nc(-c3ccccc3)no2)c1	0.6	-0.3%	·	13.1%	-2.0	-0.9%	4.2
CCOc1ccc(CCNC(=O)COC(=O)/C=C/c2ccc(OC(F)F)c(OC)c2)cc1OCC	·	-10.2%	·	-1.8%[15.4 µM]	-0.5	·	0.7
COCCn1c(SCC(=O)NCc2ccccc2)nc2ccccc21	5.4	-2.6%	·	-0.8%[15.4 µM]	-0.1	0.3%	12.5
COn1c(SC2CCCCC2)nc2ccccc2c1=O	-0.2	-13.2%	-3.5%	5.0%	5.4	-18.6%	-11.9
CC1=NOC(=O)/C1=C\c1ccc(-c2ccc(Cl)c(C(=O)O)c2)o1	18.9	-7.3%	·	?	-12.1	56.2µM*	3.7
COc1ccc2nc3cc(Cl)ccc3c(Nc3ccc(O)c(CN4CCN(C)CC4)c3)c2c1	·	-1.2%	2.8%	0.3%	-0.2	·	·
CCOC(=O)C1CCCN(C(=O)c2cc(S(=O)(=O)N3CCCCCC3)ccc2OC)C1 (stereo not drawn)	·	-11.0%	1.0%	20.7%	5.7	·	-15.3
COC(=O)N[C@H](CC(C)=O)c1ccccc1	2.2	·	·	·	·	-23.3%	5.0
COc1cccc(NC(=O)COC(=O)c2cccnc2)c1	1.0	9.1%	4.7%	-23.8%	0.2	1.9%	-1.4
Cc1ccc(OCc2cc(C(=O)NCC3COCCO3)no2)cc1C (stereo not drawn)	·	6.3%	1.1%	-39.1%[inhibitor]	8.2	3.8%	-6.3

The order is random. Share with any hit: about 5.3%.
